# Methyltransferases: Primary Screen for Target Class Profiling of Small Molecule Inhibitors of Methyltransferases. actives 3.9% (n = 25,000). calls only at 40 µM. purified enzyme, MTase-Glo SAH luminescence; stronger effect = lower value; active = -50% or lower on at least one of six enzymes; inconclusive = the cases between; inactive = as a rule above -30% on all six;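 further: enzymes were COMT GAMT GNMT HNMT NNMT and PNMT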
#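 Each enzyme was assayed with SAM and its substrate. SAH formation detected by MTase-Glo luminescence; single-point 40 uM screen[…].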
# Calls only; i = inactive; ? = inconclusive. On the % scale 0 is the no-effect control and ±100 the full control effect. This is a subset (hit frequency here may not be typical).
Compound | Methyltransferases
CC(C)OCCCNC(=O)C1c2c(n(C)c3ccccc23)SCC(=O)N1Cc1ccco1 (stereo not drawn) | i
CCOC(=O)c1cc2n(n1)CC(C)(C(=O)NCCOC)N(c1ccc(C)cc1C)C2=O (stereo not drawn) | i
CCCCN1C(=O)c2cc(C(=O)Nc3ccc(C(C)C)cc3)nn2CC1(C)C(=O)NC1CCCC1 (stereo not drawn) | i
COc1ccc(NC(=O)Nc2cnc3c(c2)CCC3)cc1 | ?
CCCC1c2cccn2CCN1C(=O)NC(C)C (stereo not drawn) | i
CCn1c(C2CCCNC2)nn(Cc2csc(-c3ccccc3)n2)c1=O (stereo not drawn) | i
CCC1=C(C)C(=O)C(C)CC12C(=O)CCC2C(=O)O (stereo not drawn) | i
CC(=O)O[C@H]1C[C@@H]2CC[C@@H]3[C@H](CC[C@@]4(C)[C@H]3C[C@H]([N+]3(C)CCCCC3)[C@@H]4OC(C)=O)[C@@]2(C)C[C@@H]1[N+]1(C)CCCCC1 | i
C=C1C(=O)O[C@@H]2C[C@@]3(C)C[C@@H](O)C[C@H](C)C3=C[C@H]12 | i
COc1cc(C2Nc3c(cccc3C(F)(F)F)C3C=CCC32)cc(Br)c1OC (stereo not drawn) | i
CCC(=O)N1C[C@@H]2CCCN3CCC[C@@H]([C@H]23)[C@H]1CCCC(=O)NC | i
COC(=O)NC1CCCN(Cc2ccc(-c3cncnc3)cc2)C1 (stereo not drawn) | i
CCc1cc2c(cc3n2CC(C)(C(=O)NC2CCC(C)CC2)N(Cc2ccc(Cl)cc2)C3=O)s1 (stereo not drawn) | i
CC(C)(O)C1Cc2c(ccc(C(=O)CCc3ccccc3)c2O)O1 (stereo not drawn) | ?
COc1ccc(Cl)cc1NC(=O)CSc1nnc2n(CCC(C)C)c(=O)c3ccccc3n12 | i
O=S(=O)(c1ccc(Cl)cc1)c1ccc(N2CCN(c3ccccn3)CC2)nn1 | i
COc1ccc(NC(=O)CSc2nnc3n(CC(C)C)c(=O)c4cc(F)ccc4n23)cc1 | i
c1cncc(-c2nnc3n2CCN(Cc2ccsc2)C3)c1 | i
OC[C@@]1(O)CO[C@@H](OC[C@H]2O[C@@H](Oc3ccccc3)[C@H](O)[C@@H](O)[C@@H]2O)[C@@H]1O | i
CC1CCCC(NC(=O)C2(C)Cn3c(nc4ccccc43)C(=O)N2CCc2ccccc2)C1C (stereo not drawn) | i

# Some of the entries so far, field by field:
CCCC1c2cccn2CCN1C(=O)NC(C)C (stereo not drawn)
  Methyltransferases: i
CCn1c(C2CCCNC2)nn(Cc2csc(-c3ccccc3)n2)c1=O (stereo not drawn)
  Methyltransferases: i

# Back to the main list, repeating the 3 entries before the break.
Compound | Methyltransferases
c1cncc(-c2nnc3n2CCN(Cc2ccsc2)C3)c1 | i
OC[C@@]1(O)CO[C@@H](OC[C@H]2O[C@@H](Oc3ccccc3)[C@H](O)[C@@H](O)[C@@H]2O)[C@@H]1O | i
CC1CCCC(NC(=O)C2(C)Cn3c(nc4ccccc43)C(=O)N2CCc2ccccc2)C1C (stereo not drawn) | i
CC(C)OCCCn1c(=O)c2ccc(Cl)cc2n2c(SCc3cccc(F)c3)nnc12 | i
NC[C@@H]1O[C@@H](O[C@@H]2[C@@H](O[C@@H]3O[C@H](CO)[C@@H](O)[C@H]3O)[C@H](O)[C@@H](N)C[C@H]2N)[C@@H](N)[C@H](O)[C@H]1O | i
CC(C)N1CCN(C(=O)c2csc(N3CCN(c4cccc(Cl)c4)CC3)n2)CC1 | i
CCOc1ccccc1CN1C(=O)CSc2c(c3ccccc3n2C)C1C(=O)NCCC(C)C (stereo not drawn) | i
CCCn1c(=O)c2cc(Cl)ccc2n2c(=O)n(CC(=O)Nc3ccc(F)cc3)nc12 | i
CC(C)=CCO[C@H]1CCOC[C@H]1NC(=O)CCc1ccc(=O)[nH]n1 | i
COc1ccc(CNC(=O)Cn2c(=O)oc3cc(S(=O)(=O)NCc4ccccc4)ccc32)cc1 | i
CC(=O)N1CCN(CC[C@H]2CN(C(=O)c3ccc(N(C)C)cc3)CC[C@H]2CC(=O)O)CC1 | i
CC(=O)NNC(=O)N1Cc2ccccc2Oc2ccc(Cl)cc21 | i
CCc1ccc(CNC(=O)c2ncn3c2C(=O)N(C2CC2)C(C)(C(=O)NCc2ccccc2OC)C3)cc1 (stereo not drawn) | i
O=C(c1nc(-c2ccsc2)c2cnccn12)N1CCCC1 | i
Cc1cc(C)nc(N2C[C@H]3OC(=O)N(CCc4cccc(Cl)c4)[C@H]3C2)n1 | i
COc1ccc(CNCc2cccc3ccccc23)cc1 | i
CCCCN1C(=O)c2cc(C(=O)NCc3ccc(Cl)cc3)nn2CC1(C)C(=O)NC1CCCC1 (stereo not drawn) | i
CC1(C(=O)NC2CCCCC2)Cn2nc(-c3cccs3)cc2C(=O)N1Cc1ccccc1Cl (stereo not drawn) | i
C[C@H]1CC[C@@]2(OC1)O[C@H]1CC3[C@@H]4CC[C@@H]5C[C@@H](O[C@@H]6O[C@H](CO)[C@@H](O[C@@H]7O[C@H](CO[C@@H]8OC[C@@H](O)[C@H](O)[C@H]8O)[C@@H](O[C@@H]8O[C@H](CO)[C@H](O)[C@H](O)[C@H]8O)[C@H](O)[C@H]7O)[C@H](O)[C@H]6O)CC[C@]5(C)C4CC[C@]3(C)[C@H]1[C@@H]2C (stereo partly drawn) | i
COc1cccc(-c2nc3cc4c(cc3cc2CN2CCOCC2)OCO4)c1OC | i
CC1(C)CC[C@]2(C(=O)O[C@@H]3O[C@H](CO)[C@@H](O)[C@H](O)[C@H]3O)CC[C@]3(C)C(=CCC4[C@@]5(C)CC[C@H](O[C@H]6O[C@H](CO)[C@@H](O)[C@H](O[C@@H]7O[C@H](CO)[C@@H](O)[C@H](O)[C@H]7O)[C@H]6O)C(C)(C)C5CC[C@]43C)[C@@H]2C1 (stereo partly drawn) | i
O=C(Cn1nc2nc(Nc3ccc(F)cc3)ccn2c1=O)Nc1ccc(F)cc1 | i
Cn1cccc1C(=O)N1CC[C@H](NC(=O)Nc2ccc(F)cc2F)[C@H]1C(=O)N[C@H](Cc1ccccc1)C(N)=O | i

Compound | Methyltransferases
c1cc2c(cc1OC1CCCCC1)c1c3n2CCNC3CCC1 (stereo not drawn) | i
O=C(NC(Cc1c[nH]c2ccccc12)c1nc2ccccc2[nH]1)c1ccccc1 (stereo not drawn) | i
CS(=O)(=O)c1ccc(CC(=O)N[C@H](c2ccccn2)C2CC(O)C2)cc1 (stereo partly drawn) | i
CCCN1C(=O)c2c(C(=O)NCc3ccc(OC(C)C)cc3)ncn2CC1(C)C(=O)NCc1ccc(OC)cc1 (stereo not drawn) | i
COc1ccc(OC)c(S(=O)(=O)N2CCC(n3c(C)cnc3-c3ccncc3)CC2)c1 | i
COc1ccc(NC(=O)c2ccc3c(c2)n(C)c(=O)c2ccnn23)cc1OC | ?
CC1=C2C[C@@]3(C)C(CCC[C@@H]3C)C(O)C2(O)OC1=O (stereo partly drawn) | i
CC(=O)O[C@@H]1[C@@H](OC(=O)/C=C/c2ccccc2)[C@@H](OC(C)=O)[C@H](O[C@H]2[C@@H]3C=CO[C@@H](O[C@@H]4O[C@H](CO)[C@@H](O)[C@H](O)[C@H]4O)[C@@H]3[C@@]3(CO)O[C@@H]23)O[C@H]1C | i
O=C(NCCc1ccccc1)c1ccc(CN2C(=O)CCn3nc(-c4ccccc4)cc32)cc1 | ?
Cc1noc(C)c1-c1cc(O)cc(C(O)c2ccccc2)c1 (stereo not drawn) | ?
CSc1nccc(N2CCC(c3nccn3Cc3cccnc3)CC2)n1 | i
N#CN1CCC[C@@H](n2nc(-c3ccc(Oc4ccc(F)cc4F)cc3)c(C(N)=O)c2N)C1 | i
C/C=C1\[C@H](O[C@@H]2O[C@H](CO)[C@@H](O)[C@H](O)[C@H]2O)OC=C2C(=O)OCCc3ccc(O)c(c3)Oc3ccc(cc3)CCOC(=O)C[C@H]21 | i
CCOc1ccc(NC(=O)CN(C)S(=O)(=O)c2ccc3[nH]c4c(c3c2)CCCC4)cc1 | i
CCOc1ccc(N2C(=O)c3cc(-c4ccccc4)nn3CC2(C)C(=O)NCc2ccccc2OC)cc1 (stereo not drawn) | i
Nc1nonc1C(=Nc1ccc(F)c(Cl)c1)NO | i
CCOc1ccccc1CN1C(=O)c2cc3sc(CC)cc3n2CC1(C)C(=O)NC1CCCCC1 (stereo not drawn) | i
COc1ccc([C@@H]2OC[C@H]3[C@@H]2CO[C@@H]3c2ccc(OC3OC(CO)C(O)C(O)C3O)c(OC)c2)cc1OC (stereo partly drawn) | i
CC(=O)c1c(C)nn(CCC(=O)N2CCC3(CC2)[C@H](O)C[C@@H]3O)c1C | i
C#C[C@]1(O)CC[C@H]2[C@@H]3CCC4=C/C(=N/O)CC[C@@H]4[C@H]3CC[C@@]21CC | i

Compound | Methyltransferases
Cc1cc(C)cc(NC(=O)CSc2nnc3n(Cc4ccc(F)cc4)c(=O)c4ccccc4n23)c1 | i
Cc1cn(CC(=O)N2CC[C@@](C)(O)[C@@H](Cc3ccccc3)C2)c(=O)[nH]c1=O | i
O=C(NCc1ccccc1Cl)c1ccc2c(=O)nc3c(-c4ccccc4F)n[nH]n3c2c1 | i
CC1(C(=O)NC2CCCCCC2)Cn2nc(-c3cccs3)cc2C(=O)N1c1ccccc1F (stereo not drawn) | i
C=C1C(=C/C=C2\CCC[C@]3(C)[C@@H]([C@H](C)/C=C/[C@@H](O)C4CC4)CC[C@@H]23)C[C@@H](O)C[C@@H]1O | ?
COc1ccccc1CCNC(=O)Cn1ccc2cc(S(=O)(=O)N3CCC(C)CC3)ccc21 | i
O=c1c2ccccc2n2c(=O)n(Cc3c(F)cccc3Cl)nc2n1Cc1ccccc1 | i
C=C(C(=O)O)[C@H]1C[C@]2(C)[C@@H](O)CC[C@]23O[C@H]1C[C@@H]3C | ?
CCN1C(=O)c2cc(C(=O)NCc3ccc4c(c3)OCO4)nn2CC1(C)C(=O)NC1CCCC1 (stereo not drawn) | i
COC[C@H]1NC(=O)CC[C@H]1C(=O)N1CCCc2ccccc21 | i
CCC(NS(=O)(=O)c1cc(-n2cccn2)ccc1OC)C1CC(O)C1 (stereo not drawn) | i
COc1ccc(CNC(=O)Cn2ccc3cc(S(=O)(=O)N4CCCCC4)ccc32)cc1 | i
CCOC(=O)c1cc2n(n1)CC(C)(C(=O)NCCC(C)C)N(c1ccc(Cl)cc1)C2=O (stereo not drawn) | i
COc1ccc(C)cc1NS(=O)(=O)c1ccc2c(c1)[C@H]1C=CC[C@H]1[C@@H](c1cccc(Cl)c1)N2 | i
COC(=O)COc1cc2oc(=O)cc(-c3ccccc3)c2cc1Cl | i
NC(=O)[C@@H](Cc1c[nH]c2ccccc12)NC(=O)C1=C[C@@H](NS(=O)(=O)c2cccs2)[C@@H](O)[C@H](O)C1 | i
CC1CCCC(NC(=O)C2(C)Cn3c(nc4ccccc43)C(=O)N2CC2CCCO2)C1C (stereo not drawn) | i
Cc1onc(-c2c(F)cccc2Cl)c1C(=O)N[C@@H]1C(=O)N2[C@@H]1SC(C)(C)[C@@H]2C(=O)O | i
CCOc1ccc(CCN2C(=O)c3cc4ccccc4n3CC2(C)C(=O)NCc2ccccc2OC)cc1 (stereo not drawn) | i
Cc1cccc(Cn2nc3n(CCC(C)C)c(=O)c4ccc(C(=O)NC5CCCC5)cc4n3c2=O)c1 | i

# Retrieved by structure from the entries so far, two records:
Compound | Methyltransferases
COc1ccc(CNC(=O)Cn2ccc3cc(S(=O)(=O)N4CCCCC4)ccc32)cc1 | i
COC(=O)COc1cc2oc(=O)cc(-c3ccccc3)c2cc1Cl | i

# Continued:
Compound | Methyltransferases
Cc1occc1C(=O)N1CC(F)(F)C[C@H]1c1nnc(C2CC2)o1 | i
CC(=O)O[C@H]1C[C@@H]2[C@]3(CC[C@]4(C)[C@@H](C5(C)CCC(C(C)(C)O)O5)[C@@H](O)C[C@@]24C)C[C@@]32CC[C@H](O[C@@H]3OC[C@@H](O)[C@H](O)[C@H]3O)C(C)(C)[C@H]12 (stereo partly drawn) | i
COCc1cn(C[C@H]2C[C@@H](NC(=O)c3ccc(C#N)cc3)[C@H](O)[C@@H]2O)nn1 | i
CN1CCN(C(CN)C2CCCCC2)CC1 (stereo not drawn) | i
C=C1C(=O)OC2CC(C)=C(C(C)CCCO[C@@H]3O[C@H](CO)[C@@H](O)[C@H](O)[C@H]3O)C(O)C12 (stereo partly drawn) | i
CN1C(=O)c2cc(C(=O)NCc3cccc(Cl)c3)nn2CC1(C)C(=O)NCc1ccccc1 (stereo not drawn) | i
COc1cccc(S(=O)(=O)N2CCCC(c3nnnn3C)C2)c1 (stereo not drawn) | i
CCN1CCN(C(=O)C2CCCN(Cc3cccnc3)CCC(=O)NCC2)CC1 (stereo not drawn) | i
O=C1NC(=O)c2cc(Nc3ccccc3)c(Nc3ccccc3)cc21 | ?
Cc1ccc(CNC(=O)Cn2nc3n(CC(C)C)c(=O)c4ccc(C(=O)NC(C)C)cc4n3c2=O)cc1 | i
CN(Cc1cccc(C(F)(F)F)c1)Cc1nc(-c2ccccc2)no1 | i
COc1ccc(CN2CCCCC23Cc2ccccc2CN(C(C)=O)C3)cc1 (stereo not drawn) | i
Cc1ccc2c(c1)c(-n1cccc1)c1n2CC(C)(C(=O)NC2CCC(C)CC2)N(Cc2ccc(Cl)cc2)C1=O (stereo not drawn) | i
COc1cccc(-c2nc3cnccn3c2NCCC(=O)N2CCN(C(C)C)CC2)c1 | i
Cc1ccc(Cn2c(=O)c3ccc(C(=O)NC(C)C)cc3n3c(=O)n(Cc4ccccc4)nc23)cc1 | i
COc1c2ccoc2cc2oc(CO[C@@H]3O[C@H](CO)[C@@H](O)[C@H](O)[C@H]3O)cc(=O)c12 | i

# Assay outcomes as filed in PubChem.
